# VACV mCherry inh = qHTS for Stage-Specific Inhibitors of Vaccinia Orthopoxvirus: mCherry Reporter Primary qHTS | Vaccinia virus mCherry reporter infection, fluorescence; about a quarter of the inactives have no number | Potency, µM (series often up to 36.5 µM), without a hit: at the highest dose activity change, negative = inhibition, actives largely listed as inhibitors | 310,000 compounds, 0.63% hits | AID 720579, 2013; active = well fitted inhibition curve with a large enough effect; inconclusive = small, poorly fitted or top-dose-only effect; inactive = no such curve, though single readings can be large or run the other way; tested in A549 cells; further: nearly all actives have a fitted effect of over 35% in size; inactives centre near -10
# Vaccinia Venus = qHTS for Stage-Specific Inhibitors of Vaccinia Orthopoxvirus: Venus Reporter Primary qHTS. Vaccinia virus Venus reporter expression, fluorescence. Potency, µM (top dose mostly 36.5 µM), for the others: top-dose activity change, negative = inhibition, usual class: inhibitors. 330,000 compounds, 0.46% hits; active means well fitted inhibition curve with a large enough effect; inconclusive means small, poorly fitted or top-dose-only effect; inactive means no such curve, though single readings can be large or run the other way; tested in A549 cells; further: nearly all actives have a fitted effect of over 30% in size; inactives centre near -10
# Numbers without * were called inactive; i = inactive; ? = inconclusive; / = no result given; & = joins results of further samples; [ ] = another dose, or the depositor's remark. On the % scale 0 is the no-effect control and ±100 the full control effect; potency means the concentration at half of the fitted maximal effect.
structure | VACV mCherry inh | Vaccinia Venus
CCN(CC)C(=O)C1=C(C)Nc2nc3ccccc3n2C1c1cccc(OC)c1 (stereo not given) | -12%&-20% | ?
CCc1ccc(/C=N/NC(=S)NCCc2ccccc2)cc1 | / | -28%
COc1ccc(OC)c(/C=N/NC(=O)c2cc[n+](Cc3ccccc3)cc2)c1 | -2% | 4%
CSc1ccc(Cl)c(C(=O)Nc2ccc(C)cn2)c1 | -19% | -19%
O=C(NCC(c1ccco1)N1CCc2ccccc2C1)c1ccc(Cl)c([N+](=O)[O-])c1 (stereo not given) | i | -8%
O=C1CN=CN=CN1c1ccc(Cl)cc1Cl | i | -7%
Cc1ccnc(SCCn2c(N3CC(C)OC(C)C3)nc3c2c(=O)n(C)c(=O)n3C)n1 (stereo not given) | -3% | -6%
COc1ccc(CN2CCNC(=O)C2CC(=O)NCCc2nc(C)c(C)s2)c(OC)c1 (stereo not given) | i | -4%
COc1ccc(CCNC(=O)C2CCN(C(=O)c3ccc(Cl)cc3)CC2)cc1 | -4% | -13%
COc1ccccc1-c1nnc(SCC(=O)NCc2cccs2)n1N | i | -4%
CCCC(C)NC(=O)c1cccc(Oc2ccccc2)c1 (stereo not given) | -13% | -19%
CCN(CC)S(=O)(=O)c1cccc(C(=O)OCC(=O)NCc2ccccc2OC)c1 | -23% | -12%
COc1ccc(NC(=O)C2Cc3c(-c4ccc5c(c4)OCO5)ccnc3O2)cc1 (stereo not given) | 0% | -13%
C=CCNC(=O)C1CC2Cn3c(nc4cc(Cl)c(Cl)cc43)C2N1C (stereo not given) | -4% | -9%
O=C1C2C3C=CC(CC3)C2C(=O)N1c1cccc(Br)c1 (stereo not given) | -3% | -7%
COCc1cc(C)nc(N2CCOCC2)c1C#N | -11% | -5%
Cc1cc(C)cc(Oc2ccccc2/C=C\C(=O)O)c1 | -13% | -5%
COc1ccc(CCNC(=O)c2ccc3c(c2)sc2nc(-c4ccc(C)cc4)cn23)cc1OC | -6% | -8%
CCCc1cc(=O)[nH]c(SCC(=O)N2CCN(S(=O)(=O)c3ccc4ccccc4c3)CC2)n1 | -10% | -13%
Cc1ccc(C)c(N2CCN(S(=O)(=O)c3cn(C)cn3)CC2)c1 | -28% | -15%
CCOc1ccc(S(=O)(=O)NCc2csc(C)n2)cc1 | -15% | -10%
CC(Sc1nc(-c2ccccc2)c(C#N)c(=O)[nH]1)C(=O)Nc1ccc(F)cc1 (stereo not given) | -2% | -8%
O=C(c1ccc(S(=O)(=O)NCC2CCCO2)cc1)N1CCc2ccccc21 (stereo not given) | / | -30%
Cc1ccc(NC(=O)COC(=O)[C@@H]2CCCN2C(=O)c2cccs2)cc1S(=O)(=O)N(C)C | 7% | -5%
N#Cc1nc(COc2ccccc2Cl)oc1NCCc1ccccc1 | i | -9%
Cc1ccc(NC(=O)CN2CCOCC2)cc1 | -14% | -11%
O=C1NC(=Nc2cccc(O)c2)S/C1=C\c1cccnc1 | -10% | -16%
COc1ccc(-c2cnc3c(NC(C)=O)cc(-c4cccc(C(=O)N(C)C)c4)cn23)cc1OC | -6% | -9%
COCCN(C(=O)CSc1nnc(C)n1-c1ccc(C)cc1)c1c(N)n(Cc2ccccc2)c(=O)[nH]c1=O | -9% | -4%
CCc1nc2ccc(C(=O)NCCNC(C)=O)cn2c1N(CCC(C)C)CCN(C)C | 12% | -4%
CC(CCc1ccco1)NC(=O)c1cccc2c1C(=O)N(C1CCCCC1)C2 (stereo not given) | i | -20%
CN(Cc1nc(CC2CC2)no1)CC12CC3CC(CC(C3)C1)C2 | -3% | 1%
Cc1c(OCC(=O)N2CCC(C(N)=O)CC2)ccc2c3c(c(=O)oc12)CCCC3 | -16% | -7%
COc1ccc(OCCCCn2c(C3CC(=O)N(c4cccc(Cl)c4)C3)nc3ccccc32)cc1 (stereo not given) | -17% | -23%
Cc1ccc(SCc2c(-c3ccccc3)nn(C)c2Cl)cc1 | / | -19%
COC(=O)c1ccc(CSc2nnc(NCc3ccccc3)s2)o1 | / | -1%
C/C(=N\NC(=O)c1c(Cl)cnn1C)c1ccc(NC(=O)c2ccc(Br)o2)cc1 | i | -9%
O=C(Nc1ccc2c(c1)CCC2)c1ncoc1-c1ccccc1F | -15% | 10%
CCc1c(C(C)S(=O)(=O)c2ccc(C)cc2)[nH]c(=O)n1-c1ccc(C)cc1 (stereo not given) | -20% | -14%
COc1ccc(-c2nsc3c(N4CCCC4)ncnc23)cc1 | -3% | -4%
O=C(Cn1cnc2ccccc2c1=O)NCc1ccc2c(c1)OCO2 | / | -8%
Cc1cc2c(OCC(O)CNC3CCCCC3)cccc2[nH]1 (stereo not given) | ? | -12%
Cc1cccc(Oc2ncnc(N)c2[N+](=O)[O-])c1 | 0% | -14%
CC(=O)c1cccc(N(C(=O)c2ccccn2)C(C(=O)NC2CCCCC2)c2ccccc2)c1 (stereo not given) | -11% | 1%
Cc1nnc2n(C3CCCCC3)c(=O)c3c4c(sc3n12)COC(C)(C)C4 | / | -14%
COc1ccc(Cl)cc1N=C1NC(=O)CC(C(=O)Nc2ccccc2C(F)(F)F)S1 (stereo not given) | 2% | 13%
O=C(COc1ccc(Cl)cc1Cl)Nc1cccnc1 | -4% | -4%
COc1cccc2c1cc1c(=O)n(CC(=O)N3CCN(c4ccccc4F)CC3)nc(C)n12 | -18% | -12%
CN(C)c1ccc(C=Nc2ccc(/C=C/c3ccnc4ccccc34)cc2)cc1 | 25% | -5%
CCN(CC)C(=O)Oc1cc(COC)nc(-c2ccccc2)n1 | -14% | -11%
CCCC(=O)N=C1SC2CS(=O)(=O)CC2N1c1ccc(CC)cc1 (stereo not given) | / | -4%
CC(C)Cn1c(=O)n(C)c(=O)c2[nH]cnc21 | -4%&-20%&-4% | ?
O=C(Nc1ccc2[nH]ncc2c1)C1CCC1 | -11% | -13%
C[C@@H]1CN([C@H](C)CO)C(=O)CCCn2cc(nn2)CO[C@H]1CN(C)C(=O)Nc1ccccc1C(F)(F)F | -15% | -11%
COc1ccc(S(=O)(=O)N(CC(=O)Nc2cccnc2)c2ccc(Cl)cc2)cc1 | -10% | -9%
O=C(Nc1ccccc1Cl)c1cc(C2CCCCN2C(=O)c2ccccc2)on1 (stereo not given) | -2% | 1%
Cc1cc(C)cc(N(CC(=O)N2CCCC2)S(C)(=O)=O)c1 | -13% | -12%
O=C(NC1CCCCC1)c1ccc2c(c1)N(Cc1ccc(Cl)cc1)C(=O)c1ccccc1S2(=O)=O | -18% | -19%
N#CCCn1cc(C=C(C#N)C#N)c(-c2ccc(Cl)cc2)n1 | -3% | -5%
Clc1ccc(N2N=C(c3cccs3)CC2c2ccco2)cc1 (stereo not given) | / | 0%

# Part of the list above in order of SMILES length, largest number first:
structure | VACV mCherry inh | Vaccinia Venus
COc1ccc(Cl)cc1N=C1NC(=O)CC(C(=O)Nc2ccccc2C(F)(F)F)S1 (stereo not given) | 2% | 13%
Clc1ccc(N2N=C(c3cccs3)CC2c2ccco2)cc1 (stereo not given) | / | 0%
CCCC(C)NC(=O)c1cccc(Oc2ccccc2)c1 (stereo not given) | -13% | -19%

# Quoted at random: 6 records from the list.
structure | VACV mCherry inh | Vaccinia Venus
Cc1cc2c(OCC(O)CNC3CCCCC3)cccc2[nH]1 (stereo not given) | ? | -12%
CCc1nc2ccc(C(=O)NCCNC(C)=O)cn2c1N(CCC(C)C)CCN(C)C | 12% | -4%
COc1ccccc1-c1nnc(SCC(=O)NCc2cccs2)n1N | i | -4%
O=C1NC(=Nc2cccc(O)c2)S/C1=C\c1cccnc1 | -10% | -16%
COc1ccc(-c2nsc3c(N4CCCC4)ncnc23)cc1 | -3% | -4%
COc1ccc(CCNC(=O)C2CCN(C(=O)c3ccc(Cl)cc3)CC2)cc1 | -4% | -13%

# Continued.
structure | VACV mCherry inh | Vaccinia Venus
CC(Oc1ccc2cc(-c3ccccc3)c(=O)oc2c1)C(=O)NCC1CCC(C(=O)O)CC1 (stereo not given) | -8% | -7%
Cc1nn(-c2ccccc2)c(-n2cccc2)c1C(=O)NCCc1ccc(Cl)cc1 | -20% | -13%
O=C1CC(c2nc3ccccc3n2CCCCOc2ccccc2)CN1c1ccccc1Cl (stereo not given) | -13% | -24%
COc1ccc(CCN(C)CC(O)COc2ccc(C(C)=O)cc2OC)cc1OC (stereo not given) | -10% | 5%
CCCn1c(N)c(N(CCOC)C(=O)c2cc(C)cc(C)c2)c(=O)[nH]c1=O | i | 0%
CCCCN(CC)S(=O)(=O)c1ccc(C(=O)Nc2nnc(-c3cccs3)o2)cc1 | -17% | ?
CCNc1nc(C)c(CN(C(C)=O)c2ccccc2)nc1C#N | -3% | -16%
CCOC(=O)c1c(CN2CCN(Cc3ccccc3)CC2)n(C)c2cc(Br)c(OC)cc12 | i | -9%
CC(=O)C1=C(O)C(=O)N(c2ccc(C)cc2)C1c1ccccn1 (stereo not given) | -13% | -3%
COc1ccc(-c2nc(C)c(CCNC(=O)c3cc(OC)c(OC)c(OC)c3)s2)cc1OC | -6% | 3%
Cc1ccc(NC(=O)C2CCCN(S(=O)(=O)c3cccs3)C2)cc1 (stereo not given) | / | -26%
COc1ccc(-n2nnc3c(=O)n(CC(=O)Nc4ccc5c(c4)OCCO5)cnc32)cc1OC | -2% | -12%
CN(C)S(=O)(=O)N1CCCN(S(=O)(=O)N(C)C)CC1 | -1% | -2%
CCC(C)Sc1ccc([C@H]2N[C@@](C)(C(=O)OC)[C@H]3C(=O)N(CC)C(=O)[C@@H]23)cc1 (stereo not given in full) | -1% | -11%
CC(C)(C)C(=O)NC(=S)NNC(=O)c1sc2ccccc2c1Cl | ? | ?
O=c1[nH]c2ccccc2n1C1CCN(C(c2ccnc3ccccc23)c2nnnn2-c2ccc3c(c2)OCCO3)CC1 (stereo not given) | -5% | -20%
Cc1ccc(S(=O)(=O)N2CCC(C(=O)NCCCN3CCOCC3)CC2)cc1 | -3% | -20%
Fc1ccccc1NC(=S)NCc1ccc2c(c1)OCO2 | -17% | -12%
CCc1cc2c(N3CCN(c4ccccc4)CC3)ncnc2s1 | / | ?
CC(C)(CO)NCC(O)Cn1cc(C=O)c2ccccc21 (stereo not given) | -7% | -17%
C=C1C(C(=O)Nc2ccc(OC)cc2)C1C(=O)Nc1ccc(OC)cc1 (stereo not given) | -1% | -6%
CCC(CO)NCc1cc(OC)c(OCC(=O)NCCc2ccccc2)cc1Br (stereo not given) | -26% | -4%
CC(=O)SC1CC(=O)C=C2CCC3C4CCC(=O)OC4(C)CCC3C21C (stereo not given) | -14% | -8%
COc1cc(OC)c(C(=O)O/N=C(\N)c2ccccn2)cc1OC | i | -19%
CC/C(=N/Nc1ccccc1C)c1cnnc(SC)n1 | i | 1%
CCC(C)Sc1nc2c(cnn2-c2ccccc2)c(=O)[nH]1 (stereo not given) | 0% | -12%
Cc1sc2ncn(CC(=O)NCCCC(=O)N3CCN(c4ccccc4)CC3)c(=O)c2c1C | -11% | ?
CC(=O)Nc1ccc(-c2ccnc3c2CC(C)(C(=O)NCc2ccncc2)O3)cc1 (stereo not given) | -4% | -3%
O=c1c2ccccc2n(Cc2ccccc2Cl)c(=O)n1CCc1ccccc1 | -1% | 0%
CSc1cccc(NC(=O)C2CCN(S(=O)(=O)c3ccc4c(c3)NC(=O)CO4)CC2)c1 | i | -13%
O=C(COC(=O)c1ccccn1)Nc1ccccc1Cl | / | -23%
Cc1ccc(C)c(NC(=O)CN2C(=O)c3cccc4cccc2c34)c1 | -29% | ?
Cc1c(C(=O)OCC(=O)NCCN2C(=O)CSC2=O)oc2c1ccc1ccccc12 | i | -24%
COC(C)(C)[C@]12CC(O)(c3ccccc3)ON1[C@H]1CCCCC1N2O (stereo not given in full) | -12% | -3%
COc1ccc(N(CC(=O)Nc2ccc(S(=O)(=O)N3CCOCC3)cc2)S(C)(=O)=O)cc1OC | -17% | -28%
COc1ccc(OC(=O)c2cccnc2)cc1 | / | -17%
CCCCCNC(=O)C(C)NS(=O)(=O)c1ccc(OC)cc1 (stereo not given) | / | -20%
COc1ccc(C2=NS(=O)(=O)N(C)C(C(=O)N3CCC4(CC3)OCCO4)=C2)cc1OC | -20%[7.34 µM] | -7%[7.34 µM]
CCn1c(C)cc(/C=C2/NC(=O)N(CC(=O)Nc3cccc(C)c3)C2=O)c1C | -14% | -4%
O=C(NCCCN1CCCC1=O)c1ccc2c(c1)NC(=O)c1ccccc1S2 | -9% | -9%
Cc1ccc(S(=O)(=O)N(C)C)cc1NC(=O)c1sccc1Cl | i | -9%
Cc1cc(=O)n2c(ccc3ccccc32)c1C#N | / | -5%
COc1cc(C(=O)N[C@H](C(=O)NC2CCCc3ccccc32)C(C)C)cc(OC)c1OC (stereo not given in full) | i | 5%

# Look-ups from the list:
# VACV mCherry inh result of `CN(Cc1nc(CC2CC2)no1)CC12CC3CC(CC(C3)C1)C2` stands at -3%
# VACV mCherry inh result of `Cc1ccc(S(=O)(=O)N2CCC(C(=O)NCCCN3CCOCC3)CC2)cc1` stands at -3%
# VACV mCherry inh result of `COc1ccc(OCCCCn2c(C3CC(=O)N(c4cccc(Cl)c4)C3)nc3ccccc32)cc1` (stereo not given) stands at -17%
# VACV mCherry inh result of `COc1cccc2c1cc1c(=O)n(CC(=O)N3CCN(c4ccccc4F)CC3)nc(C)n12` stands at -18%
# Vaccinia Venus result of `O=C1CN=CN=CN1c1ccc(Cl)cc1Cl` stands at -7%
# VACV mCherry inh result of `CC(Oc1ccc2cc(-c3ccccc3)c(=O)oc2c1)C(=O)NCC1CCC(C(=O)O)CC1` (stereo not given) stands at -8%

# High-throughput results from PubChem.
